Compound activity (PubChem BioAssay)
AID504770: growth inhibition of E. coli YBA685, primary screen, V. cholerae RctB inhibitors; E. coli YBA685 rctB-dependent plasmid, OD600 growth, 3 h; stronger effect = lower value; z-score (concentration not given with the values); actives 0.27% (n = 130,000); AID 504770, 2011;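 active = z-score under -2 on both plates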;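 also: wells of about 30 µL received 100 nL stock; score is relative to mean and SD of the test wells; the first replicate is given; strong numbers were not always called active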
CapD inh: Bacillus anthracis CapD inhibitors, primary screen, biochemical, fluorescence intensity. purified CapD enzyme, fluorescence intensity read-out; stronger effect = lower value; some hits fall short of the stated cut. CapD gamma-glutamyltranspeptidase (Bacillus anthracis Ames Ancestor). z-score (concentration not given with the values). actives 0.23% (n = 140,000);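 active = z-score under -4 in either of two replicates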;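 also: stock transfer was 100 nL into about 40 µL; score is relative to mean and spread of the plate; one replicate is shown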
* hit, by the source's call; i = inactive; x = no result given.

SMILES | AID504770 | CapD inh
Cc1cccc(NC(=S)Nc2ccc(N(C)C)cc2)c1 | -0.7 | -0.55
COc1cc(Br)c(O)c(C=NCc2ccc3c(c2)OCO3)c1 | x | -0.2
O=C(Nc1nccs1)C1=COCCO1 | -0.8 | x
COc1ccccc1CNC(=O)Cc1noc2ccccc12 | 0.2 | -0.86
O=c1c2ccccc2nc(SCc2cc(F)cc3c2OCOC3)n1NS(=O)(=O)c1ccc(Cl)cc1 | x | 0.15
CC1(C)C/C(=N/O)c2cc3c(nc2C1)CC(C)(C)C/C3=N\O | 0.9 | 0.27
CCOC(=O)c1sc(N(C)C(C)=O)nc1C | 0.8 | x
Cc1ccc(S(=O)(=O)NC(=O)n2cc(-c3nc4ccccc4o3)c(-c3ccncc3)n2)cc1 | x | 3.6
CCNC(=O)c1cc2n(n1)CCCN(Cc1ccccc1)C2=O | 1 | -0.22
COC(=O)c1c(NC(=O)CSc2nnc3sc4ccccc4n23)sc2c1CCC2 | x | -0.71
Cc1onc(-c2c(Cl)cccc2Cl)c1NC(=O)N(C)C | -0.4 | 8.9
CC(C)COC(=O)CNc1n[nH]c(=O)[nH]c1=O | -0.05 | -0.055
O=C(c1ccc(=O)[nH]n1)N1CCN(Cc2ccccc2)CC1 | 2.3 | x
C[C@@H](C(=O)OCN1C(=O)c2ccccc2C1=O)N1C(=O)C2CC=CCC2C1=O (stereo partly drawn) | 0.25 | x
NC(=O)c1ccc(NC(=O)CSc2cccc[n+]2[O-])cc1 | -0.15 | 0.29
O=C(Sc1sc(=S)sc1SC(=O)c1ccccc1)c1ccccc1 | x | 0.13
CC1CCC(NC(=O)c2ccc3snnc3c2)CC1 (stereo not drawn) | -0.75 | -0.48
Cc1ccc(C(C)NC2(C#N)C3CC4CC(C3)CC2C4)c(C)c1 (stereo not drawn) | x | -0.19
Cc1ccc(NC(=O)/C(=C/c2ccc3c(c2)OCO3)NC(=O)c2ccc(Br)cc2)cc1F | x | 3.1
CCN(CC)C(=O)CN1C(=O)C2(OCC(CO)([N+](=O)[O-])CO2)c2ccccc21 (stereo not drawn) | x | -1.2
O=C1C=C2C=C[C@@H]3C[C@@]2(O1)[C@H]1CCCCN31 | 0.4 | x
O=C(NC1CC1)c1cc(F)c(F)cc1Cl | -1.1 | -1
COc1ccc(-c2ocnc2C(=O)Nc2cccc(Oc3ccccc3)c2)cc1OC | 0.15 | x
COC(CNC(=O)c1cnn2c(C)c(Cc3ccccc3C)c(C)nc12)OC | 1.7 | 58
CC(C)(C)S(=O)(=O)Cc1noc(-c2ccc(OC(F)(F)F)cc2)n1 | 0.05 | 0.77
(listing goes on)
SMILES | AID504770 | CapD inh
N#Cc1c(/N=C/c2ccccc2Cl)oc(-c2ccccc2)c1-c1ccccc1 | x | 1.9
O=C(CSc1nc2ccccc2s1)NCCC1=CCCCC1 | -0.7 | -0.11
O=C(O)C1CCN(C(=O)c2ccc(Cl)cc2)CC1 | -4.6 | x
O=C(Cc1ccccc1F)OCC(=O)c1cc2ccccc2o1 | -0.55 | 56
Cc1ccc(S(=O)(=O)N(CCc2cccs2)CC(=O)O)cc1 | 0.5 | 0.67
O=C(Nc1ccc(F)c([N+](=O)[O-])c1)c1cc(-c2ccccc2)nc2ccccc12 | x | -0.1
CCOc1ccc(NS(=O)(=O)c2cccc(C(=O)Nc3nnc(C4CC4)s3)c2)cc1 | 0.75 | x
COc1ccc(CNC(=O)C(OC)c2ccccc2)cc1 (stereo not drawn) | -0.4 | 0.34
CC1CCCCC1NS(=O)(=O)c1ccc(F)c(C(=O)Nc2ccccc2Cl)c1 (stereo not drawn) | x | 0.01
O=C1c2ccccc2OC(c2ccccc2)C1O (stereo not drawn) | -0.45 | 0.91
CCS(=O)(=O)Nc1ccc2[nH]c(=O)[nH]c2c1 | -0.65 | x
N#Cc1ccc(-c2ccccc2)n(Cc2c(Cl)cccc2Cl)c1=O | x | 0.94
COC(=O)C1=C(\N2CCOCC2)CCCC/C=C\1C(=O)OC | 2 | -1
CCOC(=O)c1sc2nc(Cc3ccccc3)nc(N3CCCC3)c2c1C | x | 1.2
FC(F)n1c2ccccc2c2ccccc21 | 1.8 | x
CCOc1ccccc1C1C(C#N)=C(SCC(=O)Nc2ccc(Br)cc2)NC(=O)C1C(=O)OC (stereo not drawn) | x | 0.38
CN(C(=O)Nc1cn(C)c2ccccc12)C1CCCCC1 | -1.1 | x
O=S(=O)(c1cc(O)cc(S(=O)(=O)C(F)(F)F)c1)C(F)(F)F | -0.75 | 1.3
O=C1NC(=S)C(=C2CCCC2)S1 | 0.55 | x
CCOC(=O)Cn1c(=O)oc2cc(S(=O)(=O)N3CCCCC3)ccc21 | 1.2 | 0.01
CC(C)Sc1nc2ccccc2[nH]1 | -0.35 | -1
COc1cccc(N2C(=O)/C(=C/c3ccc(OC)c(OC)c3OC)C(=O)NC2=S)c1 | x | -0.81
O=C(NC1CCN(C(=O)C2CCCCC2)CC1)C1CCCCC1 | -0.5 | -0.12
O=C1NC2(CCCCC2)N(C(=O)c2ccccc2)C2=C1CCCC2 | -2.8 | 67
CC1=NN(c2nc3ccccc3s2)C(=O)C1CCC(C)C (stereo not drawn) | 1.5 | -1.1

2 of the compounds above, as labelled records.
Molecule: CC1CCCCC1NS(=O)(=O)c1ccc(F)c(C(=O)Nc2ccccc2Cl)c1 (stereo not drawn)
  AID504770: x; CapD inh: 0.01
Molecule: O=C(O)C1CCN(C(=O)c2ccc(Cl)cc2)CC1
  AID504770: -4.6; CapD inh: x

Following part:
SMILES | AID504770 | CapD inh
COc1cc([N+](=O)[O-])c(Cl)cc1N=Cc1c(C)[nH]n(-c2cccc(Cl)c2)c1=O | x | -0.07
CC(C)OC(=O)COc1ccc(C2C3=C(CC(C)(C)CC3=O)OC3=C2C(=O)CC(C)(C)C3)cc1 | x | -0.62
CCc1ccccc1NC(=O)c1cc(=O)c2ccccc2o1 | 0.55 | -0.47
COc1cccc(NC(=O)CCC(=O)Nc2cccc(OC)c2)c1 | 0.1 | 0.59
CCOc1cc(C2N3CCc4ccccc4C3CN2S(=O)(=O)c2ccccc2)ccc1OC (stereo not drawn) | x | -0.015
c1ccc2[nH]c(CCCCc3nc4ccccc4[nH]3)nc2c1 | -1.4 | 1.5
Cc1ccc(NC(=O)Cc2ccc(NC3=NC4CS(=O)(=O)CC4S3)cc2)cc1 (stereo not drawn) | -0.55 | -0.76
Cc1cc2oc(=O)sc2cc1NS(=O)(=O)c1cccc2cccnc12 | -0.75 | x
CCn1c(CNC(=O)NCc2ccccc2)nnc1SC | -0.1 | x
CCN(CC)S(=O)(=O)c1cccc2c(S(=O)(=O)N(CC)CC)cccc12 | -0.55 | i
COC(=O)c1ccc2c(c1)N(Cc1ccccc1)C(=O)c1ccccc1S2 | -0.55 | 0.23
O=C(NCc1ccccc1CN1CCOCC1)c1ccc(-n2cccn2)cc1 | 0.15 | x
NC(=O)c1ccc(C2SCC(=O)N2Cc2ccccc2)cc1 (stereo not drawn) | -0.6 | -0.26
CCC(C(=O)Nc1cccc(C(=O)O)c1)c1ccccc1 (stereo not drawn) | -0.25 | 0.53
CC(C)(C)Nc1nc(=O)[nH]c(=O)[nH]1 | -0.65 | 0.27
O=S(=O)(Nc1ccc2c(c1)nc1n2CCN(Cc2ccccc2)C1)c1ccc(F)cc1 | 0.15 | 0.43
O=C(/C=N/O)Nc1ccc(Cl)cc1 | x | 0.17
CCc1ccc(C2Nc3cc(Cl)ccc3C3=NCCCN32)cc1 (stereo not drawn) | -0.3 | x
Cc1cc(C(=O)COC(=O)c2n[nH]c(=O)c3ccccc23)c(C)n1-c1ccc(S(N)(=O)=O)cc1 | 0.65 | x
CC(=O)NC(c1ccc(Cl)cc1)C1CCCCC1=O (stereo not drawn) | -0.25 | -0.17
C=CCN1CCN(C(=O)Cc2cccs2)CC1 | 0.8 | -0.73
CCOC(=O)C1=C(Nc2ccc(OC(C)=O)cc2)C(=O)N(C(C)(C)C)C1 | -1 | -1.8
CCCN(CCC)S(=O)(=O)c1ccc(C(=O)Nc2ccc3c(c2)OCO3)cc1 | 0.8 | -0.8
CC(=O)Nc1ccc(S(=O)(=O)Oc2ccc(-c3ccccc3)c(F)c2)cc1 | x | -0.25
Oc1ccc(N=Cc2ccco2)cc1 | 0.15 | 0.39

Part of the list above in order of count of non-hydrogen atoms, descending:
SMILES | AID504770 | CapD inh
O=c1c2ccccc2nc(SCc2cc(F)cc3c2OCOC3)n1NS(=O)(=O)c1ccc(Cl)cc1 | x | 0.15
COc1ccc(-c2ocnc2C(=O)Nc2cccc(Oc3ccccc3)c2)cc1OC | 0.15 | x
CCOc1ccc(NS(=O)(=O)c2cccc(C(=O)Nc3nnc(C4CC4)s3)c2)cc1 | 0.75 | x
O=C(NCc1ccccc1CN1CCOCC1)c1ccc(-n2cccn2)cc1 | 0.15 | x
CC(=O)Nc1ccc(S(=O)(=O)Oc2ccc(-c3ccccc3)c(F)c2)cc1 | x | -0.25
CCOC(=O)C1=C(Nc2ccc(OC(C)=O)cc2)C(=O)N(C(C)(C)C)C1 | -1 | -1.8
O=C(Sc1sc(=S)sc1SC(=O)c1ccccc1)c1ccccc1 | x | 0.13
CCc1ccccc1NC(=O)c1cc(=O)c2ccccc2o1 | 0.55 | -0.47
NC(=O)c1ccc(NC(=O)CSc2cccc[n+]2[O-])cc1 | -0.15 | 0.29
Cc1onc(-c2c(Cl)cccc2Cl)c1NC(=O)N(C)C | -0.4 | 8.9
CC1CCC(NC(=O)c2ccc3snnc3c2)CC1 (stereo not drawn) | -0.75 | -0.48
C=CCN1CCN(C(=O)Cc2cccs2)CC1 | 0.8 | -0.73
FC(F)n1c2ccccc2c2ccccc21 | 1.8 | x
CC(C)Sc1nc2ccccc2[nH]1 | -0.35 | -1
O=C1NC(=S)C(=C2CCCC2)S1 | 0.55 | x

Next compounds follow.
SMILES | AID504770 | CapD inh
C#CCn1c(=NC(=O)C(C)(C)C)sc2cccc(OCC)c21 | 2 | x
COc1ccc(NC(=O)Cc2cc(F)cc(F)c2)cc1 | -0.55 | -0.065
CC1C(C#N)=C(N)SC(N)=C1C#N | 0.55 | 27
Cc1cc(C(=O)COC(=O)c2ccc(S(=O)(=O)NCc3ccco3)cc2)c(C)n1C | -0.1 | x
CCC(C)c1ccc(NC(=O)CSc2ncn[nH]2)cc1 (stereo not drawn) | -0.25 | 0.21
CCN(CC)C(=O)c1ccc(NC(=O)Cn2nc(-c3ccccc3)c3ccccc3c2=O)cc1 | 1.3 | -0.69
CCN(CC)S(=O)(=O)c1cc(C(=O)Nc2ccccc2C)ccc1C | 0.2 | 4.7
O=C(OCCS(=O)(=O)c1ccccn1)c1cccc(Cl)c1 | 0.5 | -0.03
S=c1[nH]c(-c2ccccc2)cn1/N=C/c1cccs1 | -0.65 | x
CC1CCN(C(=S)NC2CCCCC2)CC1 | 0.55 | 0.3
CC1CCCN(CN2C(=O)C3(OCC(C)(c4ccccc4)CO3)c3ccccc32)C1 (stereo not drawn) | x | 0.54
O=C1NCC(c2ccccc2)Oc2ccccc21 (stereo not drawn) | -1 | -0.27
O=C(/C=C/c1ccccc1)Nc1nnc(-c2ccc3c(c2)CCCC3)o1 | -0.1 | x
COc1cccc2cc(C(=O)N3CCC(C)CC3)c(=O)oc12 | 0.4 | -0.63
CCN1CCN(CC(=O)c2ccc(C)cc2)CC1 | 0.7 | x
CC1=C(C(=O)Nc2ccccc2)C(c2cccs2)C(C#N)=C(SCC(=O)O)N1 (stereo not drawn) | 1.7 | -0.24
O=C(O)CCCN1C(=O)/C(=C/c2ccc(Cl)cc2)SC1=S | 0.3 | -0.76
CC1=C(C(=O)Nc2ccc(Br)cn2)C(c2ccc([N+](=O)[O-])cc2)C2=C(CC(C)(C)CC2=O)N1 (stereo not drawn) | x | -0.45
CCC(C(=O)Nc1ccccc1OC)n1c(SCc2cccc(F)c2)nc2ccncc21 (stereo not drawn) | 0.4 | -0.85
CCC(C)(C)n1nnnc1C(c1ccccc1)N1CCc2ccccc2C1 (stereo not drawn) | -0.55 | x
Nc1c(C(=O)N/N=C/c2ccc3c(c2)OCO3)cnn1-c1ccccc1 | -0.55 | -0.29
CN(CC(=O)N1CCN(c2ccccc2)CC1)S(=O)(=O)c1ccc2c(c1)CCC(=O)N2 | 0.25 | 0.47
O=C1CSC(=O)N1CCOc1ccc(F)cc1 | -0.95 | x
CCCn1nc(C(=O)NCC2COc3ccccc3O2)c2ccccc2c1=O (stereo not drawn) | -0.6 | x
C=CCn1c(=S)sc2c(=O)n(CC(=O)Nc3ccc(C)c(C)c3)cnc21 | -0.05 | x
Continuation:
SMILES | AID504770 | CapD inh
NNC(=O)c1cc2cc(OC(F)(F)F)ccc2[nH]1 | -0.4 | 0.88
COc1cc(/C=C(\C#N)C(=O)OC(C)(C)C)cc(OC)c1 | -0.2 | 2
CCSc1ncc(Cl)c(C(=O)NCc2ccccc2)n1 | 1.9 | -0.3
N#Cc1c(-c2ccccc2)cc2c(c1N)c(=O)oc1ccccc12 | 1.3 | 8.5
O=C(CN1CCCCCC1=O)OCc1ncc(-c2ccccc2)o1 | 0.2 | x
CC(C)(C)c1ccc(C(=O)N2CCC(C(=O)NCc3ccco3)CC2)cc1 | 0.45 | x
CN(CC1CCCO1)S(=O)(=O)c1ccc(C(=O)Nc2nnc(-c3ccccc3)o2)cc1 (stereo not drawn) | -0.7 | x
CCOc1ccc(C2C(N3C(=O)c4c(Cl)c(Cl)c(Cl)c(Cl)c4C3=O)C(=O)N2c2cccc(Cl)c2C)cc1 (stereo not drawn) | x | -0.44
CCn1nc(-c2ccccc2)nc2c(=O)n(C)c(=O)nc1-2 | -0.3 | -0.26
CCOc1ccccc1NC1=NC(C)CS1 (stereo not drawn) | 0 | x
CC(C)C(C(=O)O)n1c(O)c(C2=c3cc(Br)ccc3=NC2=O)sc1=S (stereo not drawn) | x | -0.98
CCOC(=O)c1c(NC(=O)C(C)Sc2nnc(CNC(=O)Cc3ccc(OC)cc3)n2C)sc2c1CCCCC2 (stereo not drawn) | x | -0.76
O=C(NCCc1ccccc1)c1ccc2c(c1)N(Cc1ccccc1)C(=O)CS2 | -0.9 | 0
COc1ccc(C(=O)Nc2ccc3oc(-c4ccc(F)cc4Cl)nc3c2)cc1[N+](=O)[O-] | x | 0.65
